Screens deposited in PubChem BioAssay by Broad Institute.
UUG fidelity = modulators of yeast start codon fidelity, primary screen, whole organism, S. cerevisiae, single point, plate reader; S. cerevisiae UUG-firefly luciferase reporter, luminescence/redox ratio; activity score, % at 18.7 µM; 350,000 tested, 0.13% active; AID 602363, 2012;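 active means replicate mean at a twofold rise or more, about +100% in these data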;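 further: firefly luciferase made from a UUG start codon reports start codon fidelity; reporter light over untreated wells divided by growth signal over untreated wells; some hits fall short of that in this replicate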
Env fusion inh = inhibitors of HIV-1 Env-driven cell-cell fusion, primary screen, HeLa-JRFL effector, CEM21 target cells, luciferase. inhibition, % at 12.3 µM. 360,000 tested, 1.1% active;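 active means mean replicate inhibition score of at least 50 and every replicate individually at or above 50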;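 further: 0% = plate neutral controls and 100% = maraviroc near 300 nM; one replicate is shown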
Active calls of the source: *; & = joins results of further samples; [ ] = remark or other dose.

Env fusion inh	UUG fidelity	structure
-18[16.7 µM]	-12	CC(=O)N[C@H]1CC[C@@H](CCNC(=O)C2CCC2)O[C@@H]1CO
-2[16.7 µM]	2	C[C@H]1CN([C@@H](C)CO)C(=O)c2cc(NC(=O)NC3CCCCC3)ccc2O[C@@H]1CN(C)Cc1ccc(Cl)c(Cl)c1
16[16.7 µM]	-2	C[C@@H]1CN([C@@H](C)CO)C(=O)c2cc(NC(=O)Nc3ccc4c(c3)OCO4)ccc2O[C@@H]1CN(C)C(=O)NC1CCCCC1
-58[16.7 µM]	7	C[C@@H]1CN([C@H](C)CO)S(=O)(=O)c2ccc(C#CC3(O)CCCC3)cc2O[C@H]1CN(C)C(=O)Nc1cccc(F)c1
7[16.7 µM]	-10	C[C@H](CO)N1C[C@H](C)[C@@H](CN(C)C(=O)Nc2ccc(F)cc2)Oc2ccc(NC(=O)C3CCCCC3)cc2C1=O
9[16.7 µM]	-9	CC(C)NC(=O)N[C@H]1CC[C@@H](CC(=O)O)O[C@H]1CO
2[16.7 µM]	-17	CO[C@H]1CN(C)C(=O)c2cc(NC(=O)c3cc(C)on3)ccc2OC[C@@H](C)N(C)C[C@H]1C
1[16.7 µM]	1	C[C@@H]1CN([C@H](C)CO)C(=O)c2cc(NC(=O)Nc3ccc4c(c3)OCO4)ccc2O[C@@H](C)CCCCO[C@@H]1CN(C)Cc1ccncc1

New compounds follow:
Env fusion inh	UUG fidelity	structure
-3[16.7 µM]	-7	C[C@@H]1CN([C@H](C)CO)C(=O)c2cccc(N(C)C)c2O[C@H]1CN(C)S(=O)(=O)c1cn(C)cn1
-1[16.7 µM]	-8	C=C[C@H](COC(C)=O)N(Cc1ccc(OC(C)=O)c(OC)c1)S(=O)(=O)c1ccc(Br)cc1
0[16.7 µM]	6	Cc1ccccc1S(=O)(=O)N1C[C@@H](O)COC[C@@H]2O[C@H](CC(=O)NCc3ccccc3Cl)CC[C@H]21
3[16.7 µM]	-3	O=C(N[C@@H]1C=C[C@H](CC(=O)N2CCCCC2)O[C@H]1CO)c1cccc(F)c1
6[16.7 µM]	0	O=C(C[C@H]1CC[C@H]2[C@@H](COC[C@H](O)CN2C(=O)Nc2ccc(Cl)c(Cl)c2)O1)NC1CCC1
15[16.7 µM]	0	C[C@@H]1CN([C@@H](C)CO)C(=O)c2cc(/C=C/c3ccccc3)cnc2O[C@H]1CN(C)S(=O)(=O)c1cn(C)cn1
-9[16.7 µM]	1	C=CC[C@@]12N=C(c3ccc(OCCCO)cc3)O[C@@H]1c1ccccc1CN(C(=O)c1ccccc1)C2=O
18&19[16.7 µM]	-2&-3	C[C@H](CO)N1C[C@H](C)[C@H](CN(C)Cc2ccc3c(c2)OCO3)Oc2ncc(Br)cc2C1=O

(more compounds)
Env fusion inh	UUG fidelity	structure
13[16.7 µM]	1	C[C@@H]1CN([C@H](C)CO)C(=O)c2cccc(N(C)C)c2O[C@H]1CN(C)C(=O)Nc1ccc(C(F)(F)F)cc1
-6[16.7 µM]	-5	CCCNC(=O)C[C@@H]1CC[C@@H]2[C@@H](COc3ccc(NC(=O)c4cccc(F)c4)cc3C(=O)N2C)O1
-25[16.7 µM]	-7	C[C@@H]1CN([C@H](C)CO)C(=O)c2cccc(NS(C)(=O)=O)c2O[C@H]1CN(C)C
-19[16.7 µM]	-5	CC(C)C#Cc1ccc([C@@H]2[C@@H](C#N)N(C(=O)C3CCC3)[C@H]2CO)cc1
7[16.7 µM]	-3	CC(C)NC(=O)N(C)C[C@H]1Oc2c(NC(=O)c3nc4ccccc4s3)cccc2C(=O)N([C@@H](C)CO)C[C@@H]1C
8[16.7 µM]	7	Cc1cccc(S(=O)(=O)N[C@H]2CC[C@H](CCNC(=O)Nc3cc(F)ccc3F)O[C@H]2CO)c1
-31[16.7 µM]	22	C[C@H](CO)N1C[C@H](C)[C@@H](CN(C)Cc2ccc(Oc3ccccc3)cc2)Oc2ccc(NS(=O)(=O)c3cn(C)cn3)cc2CC1=O
6[16.7 µM]	-16	O=C(Nc1ccc2c(c1)[C@H]1C[C@H](CC(=O)N3CCOCC3)O[C@@H](CO)[C@H]1O2)C1CCC1

Remaining list, next part:
Env fusion inh	UUG fidelity	structure
-4[16.7 µM]	19	COc1ccccc1NC(=O)N[C@H]1CC[C@@H](CCNC(=O)c2ccc3c(c2)OCO3)O[C@H]1CO
-29[16.7 µM]	-5	C[C@H]1CN([C@@H](C)CO)C(=O)Cc2cc(NC(=O)NC3CCCCC3)ccc2O[C@H]1CN(C)Cc1ccncc1
30[16.7 µM]	5	COc1ccc([Si](C)(C)[C@H]2[C@H](CCn3cc(CCO)nn3)O[C@@]3(C(=O)N(C)c4c(Br)cc(C)cc43)[C@@H]2C)cc1
-8[16.7 µM]	20	COc1ccc(-c2cnc3c(c2)C(=O)N([C@H](C)CO)C[C@H](C)[C@@H](CN(C)Cc2ccccc2)O3)cc1
-13[16.7 µM]	11	C[C@@H]1CN([C@@H](C)CO)S(=O)(=O)c2ccc(C#Cc3ccccc3)cc2O[C@@H]1CN(C)CC1CC1
6[16.7 µM]	1	C[C@H]1CN([C@@H](C)CO)C(=O)c2cc(N(C)C)ccc2O[C@H]1CN(C)CC1CCCCC1
0[16.7 µM]	-14	CCCC#Cc1cnc2c(c1)C(=O)N([C@H](C)CO)C[C@@H](C)[C@@H](CN(C)Cc1ccc(F)cc1)O2
-83[16.7 µM]	-14	Cc1ccc(S(=O)(=O)Nc2ccc3c(c2)C(=O)N([C@H](C)CO)C[C@H](C)[C@@H](CN(C)C(=O)Nc2ccccc2)OCCCC[C@H](C)O3)cc1

Following part
Env fusion inh	UUG fidelity	structure
-1[16.7 µM]	-1	CN1CCN(C(=O)C[C@H]2CC[C@@H]3[C@H](COc4ccc(NC(=O)c5ccc(F)c(F)c5)cc4C(=O)N3C)O2)CC1
-7[16.7 µM]	-2	COCC(=O)N(C)C[C@H]1Oc2ncc(C3=CCCC3)cc2C(=O)N([C@@H](C)CO)C[C@H]1C
-92[16.7 µM]	-12	C[C@@H]1CCCCO[C@@H](CN(C)C(=O)Nc2ccc3c(c2)OCO3)[C@H](C)CN([C@H](C)CO)C(=O)c2cc(NS(=O)(=O)c3cccs3)ccc2O1
-5[16.7 µM]	7	CCC(=O)Nc1ccc2c(c1)C(=O)N(C)C[C@@H](OC)[C@H](C)CN(Cc1ccccc1OC)[C@H](C)CO2
4[16.7 µM]	22	Cc1noc(C)c1NC(=O)Nc1ccc2c(c1)CC(=O)N([C@@H](C)CO)C[C@@H](C)[C@H](CN(C)C(=O)Nc1ccc3c(c1)OCO3)O2
9[16.7 µM]	-16	N#C[C@@H]1[C@@H](c2ccccc2)[C@H](CO)N1C(=O)CN1CCOCC1
-9[16.7 µM]	0	COc1ccc(CN(C)C[C@@H]2OCCCC[C@H](C)Oc3ccc(NC(=O)c4ccncc4)cc3C(=O)N([C@H](C)CO)C[C@@H]2C)cc1
-4[16.7 µM]	-1	CN1C(=O)c2cc(NC(=O)C3CCOCC3)ccc2OC[C@H]2O[C@H](CC(=O)NC3CCCC3)CC[C@@H]21

The list continues.
Env fusion inh	UUG fidelity	structure
4[16.7 µM]	2	C/C=C/c1ccc2c(c1)O[C@@H](CN(C)C(=O)Cc1ccncc1)[C@H](C)CN([C@H](C)CO)S2(=O)=O
5[16.7 µM]	17	C[C@H]1CN([C@@H](C)CO)C(=O)c2cc(N(C)C)ccc2O[C@H]1CN(C)S(C)(=O)=O
-111[16.7 µM]	15	C[C@H](CO)N1C[C@H](C)[C@H](CN(C)C(=O)Nc2ccc(F)cc2)Oc2c(NS(=O)(=O)c3cccs3)cccc2C1=O
-44&-13[16.7 µM]	1&-5	C[C@@H]1CCCCO[C@@H](CN(C)Cc2ccc3c(c2)OCO3)[C@@H](C)CN([C@@H](C)CO)C(=O)c2cc(NS(=O)(=O)c3ccc(Cl)cc3)ccc2O1
-15[16.7 µM]	0	CN1CCN(C(=O)C[C@@H]2C[C@H]3c4cc(NC(=O)Nc5ccccc5)ccc4O[C@H]3[C@H](CO)O2)CC1
-5[16.7 µM]	7	C[C@@H]1CN([C@H](C)CO)C(=O)c2cc(NC(=O)Nc3ccc(C(F)(F)F)cc3)ccc2O[C@@H]1CN(C)CC1CC1
11[16.7 µM]	35	COCC(=O)N(C)C[C@H]1Oc2ncc(C#CC3(O)CCCC3)cc2C(=O)N([C@@H](C)CO)C[C@H]1C
3[16.7 µM]	18	CCC(=O)N(C)C[C@H]1Oc2cc(-c3ccccc3)ccc2S(=O)(=O)N([C@H](C)CO)C[C@@H]1C

The list goes on; it opens with the three that closed the last part.
Env fusion inh	UUG fidelity	structure
-5[16.7 µM]	7	C[C@@H]1CN([C@H](C)CO)C(=O)c2cc(NC(=O)Nc3ccc(C(F)(F)F)cc3)ccc2O[C@@H]1CN(C)CC1CC1
11[16.7 µM]	35	COCC(=O)N(C)C[C@H]1Oc2ncc(C#CC3(O)CCCC3)cc2C(=O)N([C@@H](C)CO)C[C@H]1C
3[16.7 µM]	18	CCC(=O)N(C)C[C@H]1Oc2cc(-c3ccccc3)ccc2S(=O)(=O)N([C@H](C)CO)C[C@@H]1C
4[16.7 µM]	-4	CCCNC(=O)N(C)C[C@H]1Oc2ncc(-c3ccncc3)cc2C(=O)N([C@H](C)CO)C[C@@H]1C
4[16.7 µM]	-7	CO[C@H]1CN(C)C(=O)c2cc(NS(=O)(=O)c3ccccc3F)ccc2OC[C@H](C)NC[C@@H]1C
6[16.7 µM]	3	CCCN1C[C@H](C)[C@@H](OC)CN(C)C(=O)c2cc(NC(=O)c3ccno3)ccc2OC[C@@H]1C
-10[16.7 µM]	-1	CN(C)C(=O)C[C@H]1CC[C@@H](NC(=O)C2CCC2)[C@@H](CO)O1
7[16.7 µM]	5	C[C@H](CO)N1C[C@H](C)[C@@H](CN(C)C)Oc2cc(C#CC3CC3)ccc2S1(=O)=O
10[16.7 µM]	8	CC(C)C#Cc1cnc2c(c1)C(=O)N([C@H](C)CO)C[C@H](C)[C@@H](CN(C)Cc1ccccc1)O2
-12[16.7 µM]	0	C[C@H]1CN([C@@H](C)CO)C(=O)c2cc(NC(=O)c3ccncc3)ccc2O[C@H]1CN(C)Cc1ccccc1
4[16.7 µM]	4	Cc1ccc(S(=O)(=O)NCC[C@H]2CC[C@H](NC(=O)c3ccccn3)[C@@H](CO)O2)cc1

Remaining list, next part.
Env fusion inh	UUG fidelity	structure
9[16.7 µM]	4	Cc1ccc(S(=O)(=O)Nc2ccc3c(c2)C(=O)N(C)[C@@H]2CC[C@@H](CC(=O)O)O[C@H]2CO3)cc1
10[16.7 µM]	23	COc1ccc(CN(C)C[C@@H]2OCCCC[C@@H](C)Oc3ccc(NC(=O)Nc4ccccc4)cc3C(=O)N([C@@H](C)CO)C[C@H]2C)cc1
-1[16.7 µM]	9	CCNC(=O)C[C@H]1CC[C@@H]2[C@@H](COc3ccc(NC(=O)Nc4ccc(C)cc4)cc3C(=O)N2C)O1
-64[16.7 µM]	-11	Cc1noc(C)c1S(=O)(=O)N(C)C[C@@H]1OCCCC[C@@H](C)Oc2ccc(NC(=O)Nc3ccc(F)cc3)cc2C(=O)N([C@H](C)CO)C[C@H]1C
16[16.7 µM]	6	COc1ccc(S(=O)(=O)Nc2ccc3c(c2)C(=O)N([C@H](C)CO)C[C@@H](C)[C@H](CN(C)C(=O)Nc2cccc4ccccc24)OCCCC[C@@H](C)O3)cc1
-25[16.7 µM]	-8	C[C@@H]1CCCCO[C@H](CN(C)Cc2ccncc2)[C@H](C)CN([C@H](C)CO)C(=O)c2cc(NC(=O)Nc3ccc4c(c3)OCO4)ccc2O1
-1[16.7 µM]	-14	Cc1ccc(-c2ccc3c(c2)O[C@H](CN(C)C(=O)C2CC2)[C@H](C)CN([C@@H](C)CO)S3(=O)=O)cc1
-8[16.7 µM]	35	C[C@@H]1CN([C@H](C)CO)C(=O)c2cc(C#CCN(C)C)cnc2O[C@@H]1CN(C)C(=O)Cc1ccccc1

Following part:
Env fusion inh	UUG fidelity	structure
27[16.7 µM]	4	CCCN(C)C[C@H]1Oc2ncc(-c3ccccc3OC)cc2C(=O)N([C@@H](C)CO)C[C@H]1C
-13[16.7 µM]	12	COc1ccc(S(=O)(=O)N(C)C[C@H]2OCCCC[C@@H](C)Oc3ccc(NC(=O)Cc4ccccc4)cc3C(=O)N([C@@H](C)CO)C[C@@H]2C)cc1
-6[16.7 µM]	-6	CCCNC(=O)C[C@H]1CC[C@@H]2[C@H](COc3ccc(NC(=O)C4CCOCC4)cc3C(=O)N2C)O1
13[16.7 µM]	-6	COc1cccc(CNC(=O)C[C@H]2CC[C@@H](NC(=O)C3CCOCC3)[C@@H](CO)O2)c1
37[16.7 µM]	19	C[C@@H]1CCCCO[C@H](CN(C)C(=O)Nc2ccc(F)cc2)[C@H](C)CN([C@H](C)CO)C(=O)c2cc(NC(=O)C3CCCCC3)ccc2O1
3[16.7 µM]	2	CCS(=O)(=O)NCC[C@@H]1CC[C@@H](NS(=O)(=O)c2ccccc2C)[C@H](CO)O1
14[16.7 µM]	-3	CN1C[C@@H](O)COC[C@H]2O[C@H](CC(=O)N3CCN(c4ccccc4)CC3)CC[C@@H]21

Compound profiles, as listed above. Screens in order: Env fusion inh, UUG fidelity
C[C@@H]1CN([C@H](C)CO)C(=O)c2cccc(N(C)C)c2O[C@H]1CN(C)C(=O)Nc1ccc(C(F)(F)F)cc1 is listed with 13[16.7 µM], 1
C[C@@H]1CCCCO[C@H](CN(C)Cc2ccncc2)[C@H](C)CN([C@H](C)CO)C(=O)c2cc(NC(=O)Nc3ccc4c(c3)OCO4)ccc2O1 is listed with -25[16.7 µM], -8
C[C@H](CO)N1C[C@H](C)[C@H](CN(C)Cc2ccc3c(c2)OCO3)Oc2ncc(Br)cc2C1=O is listed with 18&19[16.7 µM], -2&-3
COc1ccc(-c2cnc3c(c2)C(=O)N([C@H](C)CO)C[C@H](C)[C@@H](CN(C)Cc2ccccc2)O3)cc1 is listed with -8[16.7 µM], 20
COCC(=O)N(C)C[C@H]1Oc2ncc(C#CC3(O)CCCC3)cc2C(=O)N([C@@H](C)CO)C[C@H]1C is listed with 11[16.7 µM], 35

An excerpt; rates above refer to the full screens.
